Screening results (PubChem BioAssay)
Sa ugtP lethal: growth inhibition of S. aureus ugtP deletion strain; AID 1259309; growth inhibition, % (concentration not given with the values); hit rate 0.54% among 330,000; S. aureus RN4220 ugtP deletion, OD600 growth, 16 h; some inactives read as strong as hits;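 active = z-score under -3 and OD600 up to 0.15 on both plates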;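 note: plate controls were untreated wells for no effect and antibiotic for full effect; wells of about 80 µL received 100 nL stock; the first replicate is given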
Autofluor counter: counter-screen for toxin protease inhibitors: compound fluorescence; compound autofluorescence counterscreen, microsphere flow cytometry; hits give high values; fluorescence intensity (concentration not given with the values); hit rate 3.1% among 360,000; AID 624483;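 active = at least 3 SD above the mean of all compounds, about 16000 in these data; inconclusive = too few beads counted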;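 note: 100 nL of 1 mM stock went into each well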
Mtb hypoxia rep: inhibitors of hypoxia-regulated fluorescent reporter in Mycobacterium tuberculosis. fluorescence inhibition, % (no concentration beside the values). hit rate 0.1% among 300,000. AID 1159583. M. tuberculosis hypoxia-regulated fluorescent reporter, fluorescence;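 active = 35 to 45% if threefold the growth effect, above 45% if 1.5-fold the growth effect; inactive = the rest, general growth blockers included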;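 note: wells of about 50 µL received 100 nL stock; 0% = vehicle wells and 100% = reference inhibitor wells; whole bacteria with a GFP reporter of the hypoxia response; strong numbers were not always called active; many hits fall short of the cut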
BJeLR lethal: kills HRASV12-expressing BJeLR cells; BJeLR (HRASV12) viability, CellTiter-Glo ATP luminescence, 48 h; reference of the scale not given here; inhibition, % (concentration not given with the values); hit rate 0.17% among 300,000;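 active = replicate mean above 50%; inconclusive = above 50% but judged a plate artefact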;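 note: 50 nL library stock added to about 25 µL; numbers are from one replicate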
PrP 5UTR inh: suppresses PrP 5' UTR mRNA reporter expression; cell-based PrP 5' UTR mRNA reporter, plate reader; inhibition, % (concentration not given with the values); hit rate 0.35% among 340,000; AID 488862;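 active = every replicate at 50% or more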;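 note: 0 = median of the neutral control wells; tested in H4 reporter cells; numbers are from one replicate; inactives centre near -14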
Sa RN4220 lethal: kills Staphylococcus aureus RN4220; S. aureus RN4220 growth, OD600, 16 h; inhibition, % (test concentration not listed); hit rate 0.33% among 330,000; AID 1259311;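 active = z-score of -3 or lower and OD600 up to 0.18 on both plates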;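 note: plate controls were untreated cells for no effect and reference antibiotic for full effect; stock transfer was 100 nL into about 80 µL; one replicate is shown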
Mtb hypoxia rep growth: second read-out of Mtb hypoxia rep, no call of its own (marks repeat the call); growth inhibition, %; measured here: M. tuberculosis growth (absorbance);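 0% = vehicle and 100% = reference antibiotic; read after six days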
* marks the source's active call; other numbers are inactive results; ? = inconclusive; / = not tested or not shown; & = joins results of further samples.

SMILES | Sa ugtP lethal | Autofluor counter | Mtb hypoxia rep | Mtb hypoxia rep growth | BJeLR lethal | PrP 5UTR inh | Sa RN4220 lethal
COc1ccccc1CNC(=O)Cc1ccc(Br)cc1 | 3 | 3432 | 10 | 5 | 3 | -40 | 2.3
CC1CCCN(CC(O)COCc2ccc3c(c2)OCO3)C1 (stereo not given) | 13 | 3367 | 3 | 3 | -10 | -14 | 5.8
O=C(CN1CCN(Cc2ccccc2F)C1=O)NCc1cccnc1 | 6 | 5935 | -4 | 4 | 0 | -9 | 3.2
CCCCN(C)C(=O)c1cc2c(s1)-c1ccccc1S(=O)(=O)C2 | 5 | 3648 | 11 | 7 | 0 | -13 | 1.0
CCOC(=O)N1CCc2c(sc3c2c(=O)n(Cc2ccccc2)c(=O)n3Cc2ccc(C)cc2)C1 | 14 | 5765 | -6 | 3 | 9 | -15 | -2.3
O=C1CCCN1CCCNc1ncnc2c1[nH]c1ccc(Cl)cc12 | -1 | 3319 | 5 | 9 | 2 | -11 | -10
CCOC(=O)CCc1c(C)nc2cc(-c3ccc(F)cc3)[nH]n2c1=O | -2 | 2643 | / | / | 0 | -39 | -0.6
O=C(O)c1[nH]c2ccccc2c1-c1ccccc1 | -2 | 3065 | 4 | -1 | 0 | 1 | 11
COc1ccccc1N1CCN(Cc2cccc(OC)c2O)CC1 | / | 21009* | / | / | 9 | -6 | /
COc1cccc(C(C(=O)NC(C)(C)C)N(C(=O)CCC(=O)Nc2cc(C)on2)c2ccc3c(c2)OCCO3)c1OC (stereo not given) | 2 | 5152 | 4 | 9 | 6 | -59 | 2.9
CC1CCN(Cc2c(C(=O)NN=Cc3ccc(C(C)C)cc3)nnn2-c2nonc2N)CC1 | 8 | / | 3 | -7 | / | / | -0.2
C(CCc1nn[nH]n1)CCC1CCCCC1 | -6 | 3842 | 7 | 1 | / | 6 | 13
COC(=O)c1ccc(C2C(Oc3ccccc3)C(=O)N2CCc2ccc(F)cc2)cc1 (stereo not given) | -5 | 11531 | 0 | 7 | 6 | -20 | -0.8
O=C(Nc1cccc(NC(=O)c2ccc(-c3ccc(Br)cc3)o2)c1)c1ccco1 | 45 | 9123 | 12 | 5 | -3 | -31 | 38
CCCCn1c(N)c(N(CC(C)C)C(=O)c2cc(-c3ccncc3)nc3ccccc23)c(=O)[nH]c1=O | 1 | / | 14 | 11 | 2 | -13 | 0.0
Cc1ccc(Cl)cc1NC(=O)C(=O)NN=Cc1ccc2c(c1)OCO2 | 6 | / | 15 | 12 | / | / | 3.4
COc1ccc(CNC2CCN(Cc3ccccc3)CC2)cc1 | 4 | 3846 | 1 | 4 | -2 | -20 | 2.6
CC(C)OP(=O)(c1ccc(N(C)C)cc1)C(O)c1ccc(Br)cc1 (stereo not given) | -11 | 4521 | -7 | -5 | 3 | -5 | 3.2
NC(=O)C1=CC(C2CCCCC2)CC(OCc2ccc(CO)cc2)O1 (stereo not given) | -16&-7 | / | 13&2 | 10&12 | / | / | 7.4&7.8
Oc1ccc(CC2CNCCN2CCc2cccc3ccccc23)cc1 (stereo not given) | 2&-26 | / | 9&13 | 7&16 | / | / | 1.5&0.8
CCCN1CC(=O)N2C(c3cccc(OC)c3OC)c3[nH]c4ccccc4c3C[C@H]2C1=O (stereo not given in full) | 8 | 3469 | -8 | 1 | 4 | / | 0.6
CCN1C(=O)c2cccc3c(N)ccc1c23 | 1 | 5209 | / | / | -5 | -7 | 10
COc1ccc(OC)c(NC(=O)NCCN2CCN(c3ccccc3)CC2)c1 | 3 | 3546 | 5 | 6 | -14 | -1 | 1.7
Cc1cc(=O)oc2cc(NC(=O)C(C)N3C(=O)C4CCCCC4C3=O)ccc12 (stereo not given) | 2 | 4118 | 12 | 9 | / | -1 | 1.2
O=C(Nc1ccc(C(=O)OC2CCCCC2)cc1)c1ccncc1 | 1 | 3546 | 6 | 11 | 1 | -12 | 3.9
CCC(=NNC(=O)Cc1ccc(Br)cc1)c1cccs1 | 5 | / | 6 | 3 | / | / | -8.1
Cc1cc(C(C)(C)C)ccc1OC(=O)C1=CC=CN2CCS(=O)(=O)N=C12 | 3 | 5223 | 0 | -14 | / | -37 | 1.1
CCCCn1nc(C(=O)NCC2COc3ccccc3O2)c2ccccc2c1=O (stereo not given) | -4 | 3824 | 13 | 6 | / | 5 | 6.4
N#C/C(=C\c1cccnc1)C(=O)Nc1ccc(S(N)(=O)=O)cc1 | 2 | 6240 | -1 | -1 | 1 | -37 | 4.5
c1ccc(Cc2nnc3sc(-c4ccncc4)nn23)cc1 | -1 | 23785* | 3 | 11 | 7 | -21 | -1.0
COCCn1c(=NC(=O)c2nc3ccccc3s2)sc2cc(S(C)(=O)=O)ccc21 | 8 | 2500 | 6 | -4 | 0 | 8 | 3.7
Cc1sc2ncn(CC(=O)NCCCC(=O)N3CCN(c4ccccc4F)CC3)c(=O)c2c1C | 7 | 5852 | -3 | 3 | -13 | -14 | 6.5
CCCCCC(=O)Nc1cccc(C2=NOC3(C2)CC(C(N)=O)N(C(=O)C2CCC(=O)N2)C3)c1 (stereo not given) | 1 | / | 5 | 11 | / | / | 6.2
Clc1ccsc1-c1ccc2ccccc2n1 | 15 | 5632 | / | / | 1 | -109 | 9.3
COc1cccc(NC(=O)c2cccc(S(=O)(=O)N3CCN(Cc4ccccc4)CC3)c2)c1 | 8 | ? | 5 | -2 | 1 | -8 | -0.6
CCOC(=O)c1cc(CNC(=O)c2c(C)oc3c2CCCC3)c(C)o1 | 15 | 2715 | 0 | 0 | 2 | -9 | 11
CCOC(=O)c1c(N2C(=O)Nc3ccccc3N2O)n[nH]c1-c1cccc(Cl)c1 | -1 | 2017 | 5 | 8 | 3 | -7 | 5.2
Cc1cc(C)cc(NC(=S)NCc2cccs2)c1 | 1 | 1961 | 15 | 5 | -5 | 3 | -0.3
Cn1ccc(NC(=O)c2ccc(Cl)cc2)n1 | -2 | 4034 | 0 | -1 | / | -15 | -1.2
COCCCNC(=O)CSC1=Nc2ccccc2C2=NC(c3ccccc3)C(=O)N12 (stereo not given) | 1 | 2268 | -9 | 6 | -5 | -15 | 0.2
COc1ccc(N2CCN(C(=O)NC(=O)c3ccc(Cl)cc3)CC2)cc1 | 7 | 4209 | -1 | -3 | 4 | 5 | 3.1
CCCN1C(=O)c2ccccc2NC1c1ccc(OC)cc1OC (stereo not given) | 4 | 10166 | 8 | 3 | -4 | -14 | 1.6
Cc1cc(Cl)ccc1NC(=S)NC(C)(C)C | 9 | 4318 | 1 | -2 | 1 | -6 | 2.6
CC(=O)N1CCN(S(=O)(=O)c2cccc(C(=O)NNC(=O)COc3ccc(F)cc3)c2)CC1 | 11 | / | -2 | -4 | / | -7 | 5.5
Cc1ccc(C(=O)CSc2ccc(-c3cccnc3)nn2)cc1 | 11 | 3912 | 7 | 4 | 5 | -24 | 2.8
O=c1[nH]c(SCc2cccc(Cl)c2)nc2ccccc12 | -7 | 4053 | -1 | 3 | / | 0 | 2.2
COc1ccc(CCN2CCCn3c2nc2c3c(=O)[nH]c(=O)n2C)cc1OC | 1 | 3857 | -2 | 8 | 0 | -11 | -0.4
CC(C(=O)O/N=C(\N)c1cccnc1)c1ccc([N+](=O)[O-])cc1 (stereo not given) | 5 | 4331 | 0 | -3 | 18 | 7 | 6.0
O=[N+]([O-])c1cccc(-c2nnc3cccc(Cl)n23)c1 | 6 | 3894 | 1 | 12 | -1 | -26 | 4.1
O=C(N/N=C/c1ccc(-c2cccc([N+](=O)[O-])c2)o1)c1cccs1 | / | 4263 | / | / | -2 | -47 | /
O=C(O)c1ccc(N/N=C/C=C/c2ccccc2[N+](=O)[O-])cc1 | / | 3376 | / | / | -28 | -77 | /
Cn1nc(-c2ccc(NCCO)c([N+](=O)[O-])c2)c2ccccc2c1=O | 0 | 3440 | 4 | 7 | -5 | 2 | 5.7
COCCN(C(=O)COC(=O)c1cc(C)n(-c2ccccc2)c1C)c1c(N)n(Cc2ccccc2)c(=O)[nH]c1=O | 3 | 6533 | 2 | -4 | -9 | -2 | -4.5
COc1ccc(C=Nn2c(C)nc3sc(C)c(C)c3c2=O)cc1 | 8 | / | -1 | -4 | / | / | 0.5
CN(C)C(=O)N1CCC(C(=O)NCC2CCCO2)CC1 (stereo not given) | 0 | 10142 | 3 | -4 | -9 | -13 | 5.0
CCN(CC)C(=O)Cc1cc(C(=O)O)c2ccccc2n1 | 5 | 8220 | 7 | 3 | 1 | -16 | 4.1
CCOC(=O)c1c(C)nc2sc3c(=O)n(-c4ccc(C(C)=O)cc4)cnc3c2c1-c1ccc(OC)cc1 | -2 | 3419 | 17 | 13 | -4 | -23 | -6.6
OC[C@H]1O[C@H](OC[C@H]2O[C@H](OC[C@H]3O[C@H](O[C@]4(CO)O[C@H](CO)[C@@H](O)[C@@H]4O)[C@H](O)[C@@H](O)[C@@H]3O)[C@H](O)[C@@H](O)[C@H]2O)[C@H](O)[C@@H](O)[C@H]1O | / | 5295 | / | / | -2 | -2 | /
CCOC(=O)CNC(=S)N(CCCN1CCN(C)CC1)Cc1cccs1 | 2 | 2924 | -11 | -3 | -2 | 18 | 4.4
Cc1cc(NC(=O)C2CCN(C(=O)c3ccco3)CC2)ccc1Br | -2 | 5804 | -1 | 2 | -2 | -12 | 0.2
(next part)
SMILES | Sa ugtP lethal | Autofluor counter | Mtb hypoxia rep | Mtb hypoxia rep growth | BJeLR lethal | PrP 5UTR inh | Sa RN4220 lethal
CCOc1cc(C(=O)N2CCN(C/C=C/c3ccccc3)CC2)cc(OCC)c1OCC | 0 | 9416 | 1 | 1 | -3 | -4 | -2.2
COc1ccc(CCn2c(C)cc(C(=O)COC(=O)c3ccc(NC(=O)CC#N)cc3)c2C)cc1 | -5 | 6121 | 7 | 13 | 10 | -43 | -0.1
Cc1cc(C=NNC(=O)COc2cccc3cccnc23)c(C)n1-c1ccc(O)cc1 | -3 | / | 16 | 2 | / | / | 2.3
COc1ccc(-c2cc(=O)oc3cc(OCC(=O)NCC4CCC(C(=O)O)CC4)ccc23)cc1 (stereo not given) | 8 | 5180 | / | / | -5 | -18 | 2.1
CN(C)Cc1c(C(=O)N/N=C/c2ccccc2OCc2c(F)cccc2Cl)nnn1-c1nonc1N | / | 3147 | / | / | 23 | -21 | /
O=C1OCCN1N1CCOC1=O | 1 | 4160 | 11 | 10 | / | -15 | 1.6
CC(=O)Nc1cccc(N2C(=O)CCC2=O)c1 | -6 | 2462 | / | / | 8 | -14 | 0.9
O=S(=O)(Nc1ccncc1Cl)c1cc(Cl)ccc1Cl | 2 | 4194 | -3 | 5 | 3 | -16 | 3.1

Molecules above with a thiophene ring, fused or not, in the order listed:
SMILES | Sa ugtP lethal | Autofluor counter | Mtb hypoxia rep | Mtb hypoxia rep growth | BJeLR lethal | PrP 5UTR inh | Sa RN4220 lethal
CCCCN(C)C(=O)c1cc2c(s1)-c1ccccc1S(=O)(=O)C2 | 5 | 3648 | 11 | 7 | 0 | -13 | 1.0
CCOC(=O)N1CCc2c(sc3c2c(=O)n(Cc2ccccc2)c(=O)n3Cc2ccc(C)cc2)C1 | 14 | 5765 | -6 | 3 | 9 | -15 | -2.3
CCC(=NNC(=O)Cc1ccc(Br)cc1)c1cccs1 | 5 | / | 6 | 3 | / | / | -8.1
Cc1sc2ncn(CC(=O)NCCCC(=O)N3CCN(c4ccccc4F)CC3)c(=O)c2c1C | 7 | 5852 | -3 | 3 | -13 | -14 | 6.5
Clc1ccsc1-c1ccc2ccccc2n1 | 15 | 5632 | / | / | 1 | -109 | 9.3
Cc1cc(C)cc(NC(=S)NCc2cccs2)c1 | 1 | 1961 | 15 | 5 | -5 | 3 | -0.3
O=C(N/N=C/c1ccc(-c2cccc([N+](=O)[O-])c2)o1)c1cccs1 | / | 4263 | / | / | -2 | -47 | /
COc1ccc(C=Nn2c(C)nc3sc(C)c(C)c3c2=O)cc1 | 8 | / | -1 | -4 | / | / | 0.5
CCOC(=O)c1c(C)nc2sc3c(=O)n(-c4ccc(C(C)=O)cc4)cnc3c2c1-c1ccc(OC)cc1 | -2 | 3419 | 17 | 13 | -4 | -23 | -6.6
CCOC(=O)CNC(=S)N(CCCN1CCN(C)CC1)Cc1cccs1 | 2 | 2924 | -11 | -3 | -2 | 18 | 4.4
